HIV Env fusion = HIV envelope-mediated fusion inhibition; AID 651610; 360,000 tested, 1.1% active; HeLa-JRFL Env/CEM21 cell fusion, luciferase; inhibition, % at 12.3 µM;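 active means mean replicate inhibition score of at least 50 and every replicate individually at or above 50; inconclusive means only one of the two criteria met; inactive means mean below 50 and not all replicates reaching 50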;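 further: 0% = plate neutral controls and 100% = maraviroc near 300 nM; one replicate is shown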
Yeast UUG start = modulators of start codon recognition fidelity in yeast; 350,000 tested, 0.13% active; activity score, % at 18.7 µM; S. cerevisiae UUG-firefly luciferase reporter, luminescence/redox ratio; AID 602363;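 active means replicate mean at a twofold rise or more, about +100% in these data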;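 further: firefly luciferase made from a UUG start codon reports start codon fidelity; reporter light over untreated wells divided by growth signal over untreated wells; some hits fall short of that in this replicate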
* marks the source's active call; other numbers are inactive results; ? = inconclusive; [ ] = dose if it differs, or a comment. These rows are one share of the data; the hit share may differ from the screen's.

SMILES	HIV Env fusion	Yeast UUG start
O=C(NCC[C@@H]1CC[C@@H](NS(=O)(=O)c2ccccc2)[C@@H](CO)O1)c1ccccc1F	4[16.7 µM]	-4
CN(C)C(=O)c1cccc(-c2ccc([C@@H]3[C@@H](C#N)N(C(=O)C4CCC4)[C@H]3CO)cc2)c1	0[16.7 µM]	4
COc1ccc(-c2ccc3c(c2)O[C@@H](CN(C)CC2CC2)[C@@H](C)CN([C@@H](C)CO)S3(=O)=O)cc1	-7[16.7 µM]	-3
C[C@H]1CN([C@@H](C)CO)C(=O)Cc2cc(NC(=O)Nc3ccc4c(c3)OCO4)ccc2O[C@@H]1CN(C)C(=O)Nc1ccc2c(c1)OCO2	-9[16.7 µM]	17
C[C@H]1CN([C@@H](C)CO)C(=O)c2cc(C#CC3(O)CCCC3)cnc2O[C@@H]1CN(C)C	-4[16.7 µM]	9
C[C@@H]1CN([C@@H](C)CO)C(=O)c2cc(Br)cnc2O[C@H]1CN(C)Cc1ccccc1	-11[16.7 µM]	-8
C[C@@H]1CCCCO[C@@H](CN(C)S(=O)(=O)c2ccc(F)cc2)[C@@H](C)CN([C@H](C)CO)C(=O)c2cc(NC(=O)Nc3ccc4c(c3)OCO4)ccc2O1	14[16.7 µM]	-5
O=C(O)C[C@H]1C=C[C@@H](NC(=O)c2ccncc2)[C@H](CO)O1	22[16.7 µM]	-25
N#C[C@@H]1[C@@H](c2ccccc2)[C@@H](CO)N1C(=O)Cc1ccccn1	11[16.7 µM]	13
C[C@@H]1CN([C@H](C)CO)C(=O)c2cccc(NS(=O)(=O)c3cccs3)c2O[C@@H]1CN(C)S(=O)(=O)c1cccs1	10[16.7 µM]	-5
C[C@@H]1CN([C@@H](C)CO)S(=O)(=O)c2ccc(C#Cc3cccnc3)cc2O[C@H]1CN(C)C	9[16.7 µM]	-17
CN(C)C(=O)C[C@H]1C=C[C@@H](NC(=O)Nc2cccc(F)c2)[C@H](CO)O1	11[16.7 µM]	18
C[C@H]1CCCCO[C@H](CN(C)Cc2ccc3c(c2)OCO3)[C@@H](C)CN([C@@H](C)CO)C(=O)c2cc(NC(=O)Nc3ccc(C(F)(F)F)cc3)ccc2O1	?	-4
C[C@@H]1CCCCO[C@H](CN(C)C(=O)CCCN(C)C)[C@H](C)CN([C@@H](C)CO)C(=O)c2cc(NC(=O)C3CCCCC3)ccc2O1	3[16.7 µM]	16
C[C@H](CO)N1C[C@H](C)[C@@H](CN(C)Cc2ccc(Cl)c(Cl)c2)Oc2ccc(N(C)C)cc2C1=O	58*[16.7 µM]	10
CO[C@H]1CN(C)C(=O)c2ccc(NC(C)=O)cc2OC[C@H](C)N(CC2CC2)C[C@@H]1C	-27[16.7 µM]	-11
C[C@H]1CN([C@@H](C)CO)C(=O)c2cc(-c3ccc(F)cc3)cnc2O[C@@H]1CN(C)CC1CCOCC1	4[16.7 µM]	-11
COc1ccc(NC(=O)N(C)C[C@@H]2Oc3ncc(C#C[C@H](C)O)cc3C(=O)N([C@H](C)CO)C[C@H]2C)cc1	-14[16.7 µM]	16
C[C@@H]1CCCCO[C@H](CN(C)C(=O)c2ccccc2)[C@H](C)CN([C@@H](C)CO)C(=O)c2cc(NC(=O)Nc3ccc4c(c3)OCO4)ccc2O1	-3[16.7 µM]	47
CN1C(=O)c2cc(NC(=O)C3CCCC3)ccc2OC[C@@H]2O[C@H](CC(=O)Nc3ccccc3)CC[C@H]21	-1[16.7 µM]	31
C[C@H](O)C#Cc1cnc2c(c1)C(=O)N([C@H](C)CO)C[C@H](C)[C@H](CN(C)C(=O)CC1CC1)O2	-24[16.7 µM]	-7
C[C@@H]1CN([C@H](C)CO)C(=O)c2cc(NC(=O)Cc3cn(C)c4ccccc34)ccc2O[C@H]1CN(C)S(=O)(=O)c1ccccc1	27[16.7 µM]	-14
Cc1ccccc1NC(=O)Nc1ccc2c(c1)C(=O)N(C)[C@H]1CC[C@H](CC(=O)O)O[C@H]1CO2	20[16.7 µM]	6
CCC(=O)Nc1ccc2c(c1)C(=O)N(C)[C@H]1CC[C@H](CC(=O)NCCN3CCCCC3)O[C@@H]1CO2	-22[16.7 µM]	-7
C[C@@H]1CN([C@@H](C)CO)C(=O)c2cccc(NS(=O)(=O)c3ccc(Cl)cc3)c2O[C@H]1CN(C)C(=O)Nc1cccc2ccccc12	5[16.7 µM]	-3
Further entries follow.
SMILES	HIV Env fusion	Yeast UUG start
O=C(C[C@H]1C[C@H]2c3cc(NC(=O)Nc4ccc(C(F)(F)F)cc4)ccc3O[C@H]2[C@@H](CO)O1)NC1CCCCC1	13[16.7 µM]	-1
O=C(N[C@H]1CC[C@@H](CCNC(=O)c2ccccc2F)O[C@@H]1CO)c1ccc2c(c1)OCO2	-2[16.7 µM]	-8
C[C@H](CO)N1C[C@H](C)[C@@H](CN(C)C(=O)Nc2ccccc2)Oc2c(NC(=O)CCCCCC(=O)Nc3ccccc3N)cccc2C1=O	-5[16.7 µM]	3
C[C@H](CO)N1C[C@H](C)[C@H](CN(C)S(=O)(=O)c2ccccc2)Oc2ccc(NS(=O)(=O)c3cn(C)cn3)cc2CC1=O	20[16.7 µM]	-3
COc1ccc(S(=O)(=O)Nc2ccc3c(c2)C(=O)N([C@H](C)CO)C[C@H](C)[C@H](CN(C)C(=O)C2CCCCC2)OCCCC[C@H](C)O3)cc1	-48[16.7 µM]	-7
C[C@@H]1CN([C@@H](C)CO)C(=O)c2cc(C#Cc3ccccn3)cnc2O[C@H]1CN(C)Cc1ccccc1	2[16.7 µM]	-8
C[C@@H]1CN([C@H](C)CO)S(=O)(=O)c2ccc(C#CC3CC3)cc2O[C@@H]1CN(C)Cc1cccnc1	12[16.7 µM]	5
CO[C@H]1CN(C)C(=O)c2ccc(NC(C)=O)cc2OC[C@@H](C)N(C(=O)c2ccccn2)C[C@H]1C	-17[16.7 µM]	13
O=C(C[C@H]1C[C@H]2c3cc(NC(=O)Nc4ccccc4F)ccc3O[C@H]2[C@H](CO)O1)NCc1ccccn1	9[16.7 µM]	-22
Cc1noc(C)c1S(=O)(=O)Nc1ccc2c(c1)C(=O)N([C@@H](C)CO)C[C@H](C)[C@@H](CN(C)C(=O)Nc1ccc(C(F)(F)F)cc1)O2	1[16.7 µM]	-15
Cc1ccc(S(=O)(=O)NCC[C@@H]2CC[C@H](NC(=O)c3ccccn3)[C@H](CO)O2)cc1	-13[16.7 µM]	-13
C[C@@H]1CN([C@@H](C)CO)C(=O)c2cc(C#CC3CC3)cnc2O[C@H]1CN(C)C(=O)c1ccccc1	-24[16.7 µM]	8
C[C@H](CO)N1C[C@H](C)[C@H](CN(C)Cc2ccc(Oc3ccccc3)cc2)Oc2ccc(NC(=O)Nc3ccc(F)cc3)cc2CC1=O	1[16.7 µM]	8
Cc1ccc(S(=O)(=O)Nc2ccc3c(c2)C(=O)N([C@H](C)CO)C[C@@H](C)[C@@H](CN(C)C(=O)CCCN(C)C)OCCCC[C@@H](C)O3)cc1	17[16.7 µM]	16
O=C(N[C@H]1C=C[C@@H](CC(=O)N2CCOCC2)O[C@@H]1CO)c1ccc2c(c1)OCO2	2[16.7 µM]	-13
Cc1noc(C)c1S(=O)(=O)Nc1ccc2c(c1)C(=O)N([C@H](C)CO)C[C@@H](C)[C@H](CN(C)C(=O)Nc1ccc(C(F)(F)F)cc1)O2	-2[16.7 µM]	-13
CO[C@H]1CN(C)C(=O)c2cc(NC(=O)c3cnccn3)ccc2OC[C@@H](C)N(C(=O)C2CC2)C[C@H]1C	3[16.7 µM]	46
C/C=C/c1cnc2c(c1)C(=O)N([C@H](C)CO)C[C@@H](C)[C@H](CN(C)C(=O)Nc1ccc(OC)cc1)O2	7[16.7 µM]	6
CN1C(=O)c2cc(NC(=O)c3ccc(F)c(F)c3)ccc2OC[C@@H]2O[C@H](CC(=O)O)CC[C@@H]21	-22[16.7 µM]	8
C[C@@H]1ON(C)[C@H]2C[C@H]3c4[nH]c5ccccc5c4CCN3C[C@@H]12	1	-1
CCC(=O)N(C)C[C@@H]1Oc2cc(C#CCC3CCCC3)ccc2S(=O)(=O)N([C@@H](C)CO)C[C@H]1C	39[16.7 µM]	-7
C[C@@H]1CCCCO[C@H](CN(C)C(=O)NC2CCCCC2)[C@H](C)CN([C@H](C)CO)C(=O)c2cc(NC(=O)c3ccncc3)ccc2O1	-12[16.7 µM]	0
C[C@H](CO)N1C[C@H](C)[C@H](CN(C)C(=O)Nc2ccc3c(c2)OCO3)Oc2ncccc2C1=O	-18[16.7 µM]	-22
C[C@@H]1CN([C@@H](C)CO)C(=O)c2cc(NC(=O)c3ccncc3)ccc2O[C@@H](C)CCCCO[C@H]1CN(C)C(=O)Nc1ccc(C(F)(F)F)cc1	-4[16.7 µM]	22
C[C@H]1CN([C@@H](C)CO)S(=O)(=O)c2ccc(C#CCN(C)C)cc2O[C@@H]1CN(C)Cc1ccccc1	-27[16.7 µM]	3

A run of entries taken from the entries so far, as a working copy:
SMILES	HIV Env fusion	Yeast UUG start
C[C@@H]1CCCCO[C@H](CN(C)C(=O)NC2CCCCC2)[C@H](C)CN([C@H](C)CO)C(=O)c2cc(NC(=O)c3ccncc3)ccc2O1	-12[16.7 µM]	0
C[C@H](CO)N1C[C@H](C)[C@H](CN(C)C(=O)Nc2ccc3c(c2)OCO3)Oc2ncccc2C1=O	-18[16.7 µM]	-22
C[C@@H]1CN([C@@H](C)CO)C(=O)c2cc(NC(=O)c3ccncc3)ccc2O[C@@H](C)CCCCO[C@H]1CN(C)C(=O)Nc1ccc(C(F)(F)F)cc1	-4[16.7 µM]	22
C[C@H]1CN([C@@H](C)CO)S(=O)(=O)c2ccc(C#CCN(C)C)cc2O[C@@H]1CN(C)Cc1ccccc1	-27[16.7 µM]	3

(further entries)
SMILES	HIV Env fusion	Yeast UUG start
COc1ccc(-c2cnc3c(c2)C(=O)N([C@H](C)CO)C[C@@H](C)[C@@H](CN(C)Cc2ccccc2)O3)cc1	6[16.7 µM]	7
C/C=C/c1ccc2c(c1)O[C@H](CN(C)C(=O)c1cccc(F)c1)[C@H](C)CN([C@@H](C)CO)S2(=O)=O	5[16.7 µM]	-4
C/C=C/c1cnc2c(c1)C(=O)N([C@@H](C)CO)C[C@@H](C)[C@@H](CN(C)S(=O)(=O)c1ccc(OC)cc1)O2	16[16.7 µM]	-1
C[C@@H]1CN([C@H](C)CO)C(=O)c2cc(NS(=O)(=O)c3ccc(Cl)cc3)ccc2O[C@@H](C)CCCCO[C@@H]1CN(C)Cc1ccc(C(F)(F)F)cc1	?	14
C[C@@H]1CCCCO[C@H](CN(C)C(=O)Nc2ccc(C(F)(F)F)cc2)[C@H](C)CN([C@@H](C)CO)C(=O)c2cc(NC(=O)C3CCCCC3)ccc2O1	24[16.7 µM]	-7
CCCNC(=O)C[C@@H]1CC[C@@H]2[C@@H](COc3ccc(NC(=O)CCC)cc3C(=O)N2C)O1	-49[16.7 µM]	5
COc1ccc(CN(C)C[C@@H]2OCCCC[C@H](C)Oc3ccc(NC(=O)Nc4c(C)noc4C)cc3C(=O)N([C@H](C)CO)C[C@H]2C)cc1	6[16.7 µM]	-10
C[C@H](O)C#Cc1ccc2c(c1)O[C@H](CN(C)Cc1ccccc1)[C@H](C)CN([C@H](C)CO)S2(=O)=O	-12[16.7 µM]	-11
C[C@H](CO)N1C[C@H](C)[C@H](CN(C)C(=O)c2ccccc2)OCCCC[C@H](C)Oc2ccc(NC(=O)Nc3cccc4ccccc34)cc2C1=O	7[16.7 µM]	-18
CCCNC(=O)C[C@@H]1CC[C@H]2[C@H](COc3ccc(NC(=O)C4CCCC4)cc3C(=O)N2C)O1	-3[16.7 µM]	11
CO[C@@H]1CN(C)C(=O)c2ccc(NC(=O)C3CC3)cc2OC[C@H](C)N(C(=O)c2ccccc2F)C[C@H]1C	-4[16.7 µM]	4
CNC[C@@H]1Oc2ccc(NC(=O)Nc3ccc4c(c3)OCO4)cc2C(=O)N([C@H](C)CO)C[C@H]1C	-13[16.7 µM]	-3
C[C@H](CO)N1C[C@H](C)[C@@H](CN(C)S(=O)(=O)c2cccs2)Oc2ccc(N(C)C)cc2CC1=O	-7[16.7 µM]	27
C[C@@H]1CCCCO[C@@H](CN(C)Cc2ccc(Cl)c(Cl)c2)[C@@H](C)CN([C@H](C)CO)C(=O)c2cc(NC(=O)Cc3ccccc3)ccc2O1	-50[16.7 µM]	-17
CCCNC(=O)C[C@H]1CC[C@@H]2[C@@H](COc3ccc(NC(=O)c4cccc(C(F)(F)F)c4)cc3C(=O)N2C)O1	65*[16.7 µM]	8
COC(=O)C[C@H]1C[C@@H]2c3cc(NC(=O)NC4CCCCC4)ccc3O[C@@H]2[C@H](CO)O1	3[16.7 µM]	4
C[C@H](CO)N1C[C@H](C)[C@@H](CN(C)C(=O)Nc2ccccc2)Oc2ccc(NS(=O)(=O)c3ccccc3)cc2CC1=O	-3[16.7 µM]	14
O=C(C[C@@H]1CC[C@H]2[C@@H](COC[C@H](O)CN2Cc2ccc3c(c2)OCO3)O1)Nc1ccc(-c2ccccc2)cc1	15[16.7 µM]	3
COc1ccc(S(=O)(=O)Nc2ccc3c(c2)C(=O)N([C@H](C)CO)C[C@H](C)[C@@H](CN(C)S(C)(=O)=O)OCCCC[C@@H](C)O3)cc1	-3[16.7 µM]	5
CNC[C@@H]1Oc2ccc(N)cc2C(=O)N([C@H](C)CO)C[C@H]1C	-4[16.7 µM]	-11

Some of the entries so far, with the structure last.
HIV Env fusion	Yeast UUG start	smiles
4[16.7 µM]	-4	O=C(NCC[C@@H]1CC[C@@H](NS(=O)(=O)c2ccccc2)[C@@H](CO)O1)c1ccccc1F
0[16.7 µM]	4	CN(C)C(=O)c1cccc(-c2ccc([C@@H]3[C@@H](C#N)N(C(=O)C4CCC4)[C@H]3CO)cc2)c1
-7[16.7 µM]	-3	COc1ccc(-c2ccc3c(c2)O[C@@H](CN(C)CC2CC2)[C@@H](C)CN([C@@H](C)CO)S3(=O)=O)cc1
-9[16.7 µM]	17	C[C@H]1CN([C@@H](C)CO)C(=O)Cc2cc(NC(=O)Nc3ccc4c(c3)OCO4)ccc2O[C@@H]1CN(C)C(=O)Nc1ccc2c(c1)OCO2
